VDR inhibitor – blocks the human vitamin D receptor; P11473; 400,000 tested, 0.93% active; Potency, µM, inactives show max response, negative = inhibition, usual class: inhibitors; VDR-SRC2-3 peptide fluorescence polarization, 2 h; AID 504847; active = well fitted inhibition curve with a large enough effect; inconclusive = small, poorly fitted or top-dose-only effect, or another doubt; inactive = no such curve, though single readings can be large or run the other way; also: series mostly up to about 120 µM
Target sequence (P11473 whole entry, looked up): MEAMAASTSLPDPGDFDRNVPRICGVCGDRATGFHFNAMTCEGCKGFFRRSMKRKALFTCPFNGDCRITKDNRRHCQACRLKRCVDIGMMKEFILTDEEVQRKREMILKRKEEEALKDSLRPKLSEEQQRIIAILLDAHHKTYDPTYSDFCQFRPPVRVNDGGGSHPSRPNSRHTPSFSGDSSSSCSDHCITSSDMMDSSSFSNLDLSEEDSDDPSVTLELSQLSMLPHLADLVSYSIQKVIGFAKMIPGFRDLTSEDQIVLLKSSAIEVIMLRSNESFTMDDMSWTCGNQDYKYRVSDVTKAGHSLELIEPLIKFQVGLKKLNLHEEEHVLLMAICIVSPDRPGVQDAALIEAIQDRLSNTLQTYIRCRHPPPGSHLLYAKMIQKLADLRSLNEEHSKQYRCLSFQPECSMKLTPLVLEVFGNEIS
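Fluorescence polarization assay of small-molecule disruption of VDR binding to coregulator peptide SRC2-3. Compounds and controls pin-transferred, then read after 2 h incubation at ambient room temperature.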
The depositor's hits bear a star; ? = inconclusive; [ ] = remark or other dose. % is scaled to controls: 0 for no effect and ±100 for the full control effect; potency is read from the fitted curve at half-maximal effect. Not all compounds are listed. The share of hits here may be higher or lower than overall.

SMILES | VDR inhibitor
CCOc1ccccc1C(=O)N1CCc2cc(OC)c(OC)cc2C1COc1ccc(OC)cc1 (centres undefined) | 19%
Cc1ccc(NC(=S)/N=C(\N)Nc2nc(C)c3ccccc3n2)cc1C | -29%
CCCCCCn1c(CNC(=O)c2ccccc2)nc2ccccc21 | 8%
CN1CCN(c2ccccc2NC(=O)c2ccc(OCc3ccccc3)cc2)CC1 | 4%
CCOc1ccc(CC(C(N)=O)C(N)=O)cc1CN(C)C | 13%
CC1CCCCC12NC(=S)N(c1ccccc1)N2 (centres undefined) | 1%
COc1ccc(C)cc1NC(=O)C(OC(=O)c1cnccn1)c1ccccc1 (centres undefined) | -11%
COc1ccc(C2NC(=O)NC(C)=C2C(=O)OC2CCC(C)CC2)cc1 (centres undefined) | 4%
COC(=O)C1=C(C)N(Cc2ccccc2)C(=NCc2ccccc2)N[C@H]1c1ccccc1 | -7%
CC(=O)Nc1ccc(NC(=O)c2oc3ccc4c(c3c2C)C(=O)CC(C)(C)O4)cc1 | 5%
COc1ccc(-c2cc3c(=O)n(CC(=O)Nc4ccc(Br)c(C)c4)ccn3n2)cc1OC | 15%
CCC(=O)N/N=C/c1ccc(-c2ccc([N+](=O)[O-])cc2)o1 | -12%
O=C(c1cccnc1NCc1ccc(F)cc1)N1CCOCC1 | -3%
CC(C)C[C@@H](CNCC(=O)[C@H](Cc1ccccc1)NC(=O)c1[nH]cnc1C(=O)N[C@@H](C)CN)NC(=O)c1nc[nH]c1C(=O)N[C@@H](C)C(=O)O | -11%
CCOc1ccc(S(=O)(=O)N2CCC(C(=O)NC3CC3)CC2)cc1C | -4%
CCOC(=O)Cc1ccc2sc(-c3ccccc3)nc2c1 | -5%
CCOc1ccccc1-c1cc(C(=O)N/N=C/c2ccc(O)c(OC)c2)c2ccccc2n1 | 8%
C=CCN1C(=O)N(c2ccc(Cl)cc2)C(=O)C1CC(=O)Nc1ccc(F)cc1 (centres undefined) | -2%
CC(=O)c1ccc(-n2nnnc2SCC(=O)N2CCc3ccccc3C2)cc1 | -12%
COc1ccc(CCNC(=O)C(=O)NCC2CCCN2S(=O)(=O)c2ccccc2)cc1OC (centres undefined) | -16%
O=C(COC(=O)CCCCCN=C1NS(=O)(=O)c2ccccc21)Nc1ccc(Cl)c(Cl)c1 | 4%
COc1ccc(CCn2c(O)c(C=Nc3cccc(F)c3)c(=O)[nH]c2=O)cc1OC | -4%
Cc1cccc(NC(=O)C2(C)CC3c4ccccc4C2c2ccccc23)c1 (centres undefined) | 0%
O=[N+]([O-])c1ccc(S(=O)(=O)N2CCN(c3ccc(N4CCOCC4)nn3)CC2)cc1 | 14%
Cc1ccc(S(=O)(=O)N2CCC(C(=O)Nc3nnc(C)s3)CC2)cc1 | -18%
O=c1c(C/C=C/c2ccccc2)c(O)ccn1Cc1ccc(Cl)cc1Cl | 15%
CC(=O)Nc1ccc(S(=O)(=O)N2CCN=C2SCc2ccc([N+](=O)[O-])cc2)cc1 | -19%
COc1cccc(CN2CCN(c3nc4nonc4nc3NC3CC3)CC2)c1 | 0%
CCCOc1ccc(N2C(=O)CC(SC(=NCC)Nc3cccc(F)c3)C2=O)cc1 (centres undefined) | 2%
O=C(Oc1ccc(C(=S)N2CCOCC2)cc1Br)c1ccccc1F | ?
COc1ccc(/C=C/C(=O)OCC(=O)Nc2ccc(Cl)cc2F)cc1S(=O)(=O)N1CCOCC1 | 30%
CCOc1ccc(N(CC(=O)Nc2ccccc2)S(C)(=O)=O)cc1 | 13%
Cc1cc(C)n(C(=O)Cn2nc(C(F)F)cc2C)n1 | 14%
CC(C)C1N(C(=O)N(C)C)CCN1S(=O)(=O)c1ccccc1 (centres undefined) | 4%
O=C(O)CNS(=O)(=O)c1cccc2nsnc12 | -5%
CCOC(=O)c1ccc(NC(=O)CCc2nc(-c3cccc(C)c3)no2)cc1 | 55%[activator]
COCC(C)n1c(COc2ccccc2F)nnc1SCC(=O)c1c(N)n(C)c(=O)n(C)c1=O (centres undefined) | ?
Cc1cc(C)cc(NC(=O)c2cc(S(=O)(=O)N3CCc4ccccc43)cn2C)c1 | 13%
COc1ccc(C(C)NC(=O)c2ccc(Cl)cc2)cc1OC (centres undefined) | -3%
CC(C(=O)NCC(=O)Nc1ccc(F)c(F)c1F)N1CCN(Cc2ccc(C#N)cc2)CC1 (centres undefined) | 8%
CCN(CC)C(=O)C(=O)c1cccn1-c1ccccc1C#N | 5%
Cc1ccc(-c2noc(-c3ccc(N4CCCCC4)c([N+](=O)[O-])c3)n2)cc1 | 5%
COc1ccc(-c2cn3c(C)c(C(=O)Nc4cccc(NC(C)=O)c4)sc3n2)cc1 | -13%
COCCCNC(=O)c1c(NC(=O)Cc2coc3cc(C)ccc23)sc2c1CCCC2 | 3%
c1ccc2c(NCCc3c[nH]c4ccccc34)c3ccccc3nc2c1 | -24%
CC(=O)Nc1ccc(C(=O)OCc2ccccc2Cl)cc1 | ?
CCc1noc(C)c1C(=O)N1CCN(S(=O)(=O)c2c(C)cc(C)cc2C)CC1 | -5%
CN(C)C(=O)[C@H]1C[C@H]1[C@@H](O)[C@H](CO)NC(=O)[C@H](COCc1ccccc1)NC(=O)OC(C)(C)C | 0%
O=C(OC(C(=O)NC1CCCCC1)c1ccc(C(F)(F)F)cc1)c1ccco1 (centres undefined) | -29%
COc1ccc(NC(=O)c2nnn(CC(=O)Nc3ccccc3OC)c2N)c(OC)c1 | 30%
O=C(Nc1ccccc1Br)C(=O)N1CCCC1 | -14%
CC(CN)(NS(=O)(=O)c1ccccc1)c1ccccc1 (centres undefined) | -15%
CSc1ncccc1C(=O)OCCCC(=O)c1ccc(F)cc1 | -10%
Nn1c(SCC(=O)N2CCCCCC2)nnc1-c1ccncc1 | -3%
CCC(C)NC(=O)NC(=O)CSc1nnc(-c2ccccc2F)n1C1CC1 (centres undefined) | -1%
COc1cccc(-c2nc(-c3ccncc3)no2)c1 | 16%
CC(C)(CNc1ccc([N+](=O)[O-])cc1C#N)N1CCOCC1 | -25%
CN(C)/C=C1\N=C(c2cccnc2Oc2ccc(Cl)cc2)OC1=O | -17%
CC(C)(C)n1nc2c(c1NC(=O)Cc1cccc3ccccc13)CS(=O)C2 (centres undefined) | 5%
O=C(CN1C(=O)NC(Cc2ccccc2)C1=O)Nc1ccc(OC(F)F)cc1 (centres undefined) | -4%

(listing goes on)
SMILES | VDR inhibitor
COc1cccc(CNC(=O)c2csc3c2CCCC3)c1 | 16%
COc1ccc(S(=O)(=O)N=Nc2c(O)[nH]c3ccccc23)cc1 | -7%
O=C(N/N=C/C(Br)=C/c1ccccc1)c1cnccn1 | -18%
CC(Oc1ccc(Cl)cc1)C(=O)N1CCN(C(=O)c2ccco2)CC1 (centres undefined) | -19%
O=C(c1ccc(COc2ccc(F)cc2)o1)n1cccn1 | -2%
CCCCSc1nc(O)c(C2OC(=O)c3c2ccc(OC)c3OC)c(=O)n1C (centres undefined) | -17%
Cc1c(C#N)sc2nc(-c3ccccc3)nc(N3CCCC3)c12 | -8%
COc1ccc([C@H]2/C=C\CN(S(=O)(=O)c3cccc4cccnc34)[C@@H](C)C(=O)N2Cc2ccc(F)cc2)cc1 | -9%
COc1ccc(OC)c(NC(=O)NCCc2cccc(Cl)c2)c1 | 2%
O=C(Nn1c(COc2ccccc2)nc2ccccc2c1=O)C(Cl)(Cl)Cl | ?
CCC1CN(C(=O)Nc2ccc(Br)cc2F)c2ccccc2S1 (centres undefined) | 21%
N#Cc1ccsc1NC(=O)COc1ccc(-c2nnco2)cc1 | 13%
COc1ccc(S(=O)(=O)N2CCc3ccccc3C2)cc1OC | 2%
CCCc1cc(NCC2CCCO2)n2c(nc3ccccc32)c1C#N (centres undefined) | -9%
O=C(N/N=C/c1ccc(O)cc1)c1cc(C23CC4CC(CC(C4)C2)C3)[nH]n1 | -8%
COc1cccc(NC(=S)N(CCN2CCCCC2)Cc2ccco2)c1 | 14%
O=C1c2ccsc2SCCN1Cc1ccc(Cl)cc1 | -7%
CCOC(=O)c1cn(Cc2ccccc2)nc1-c1ccccc1 | -5%
CC(C)(C)C(=O)NCCCC(=O)O | 3%
O=C(NCc1ccccn1)c1ccc(OC2CCN(Cc3ccc(F)cc3F)CC2)cc1 | -21%
COc1cc(C(F)(F)F)c(C(=O)N(C)Cc2cccc(Cl)c2)cn1 | -7%
Cc1ccc(C(=O)NCCc2nnc3ccc(NCCCN4CCOCC4)nn23)cc1 | 7%
COCc1cc(C)nc(OCC(=O)N/N=C/c2cc(C)n(-c3c(C)cccc3C)c2C)c1C#N | 15%
Cc1ccc(N=Cc2c(O)n(-c3nccs3)c(=O)c3ccccc23)c(C)c1 | -15%
CN(C(=O)CSc1ncnc2sc3c(c12)CCCC3)C1CCS(=O)(=O)C1 (centres undefined) | 23%
CC(c1ccccc1)n1cc(C(=O)NCCN2CCOCC2)nn1 (centres undefined) | -7%
Cc1[nH]c2ccccc2c1N=Nc1cccc(C(=O)O)c1 | -12%
Cc1c(Cl)cccc1N1CC(C(=O)Nc2nccs2)CC1=O (centres undefined) | 0%
CC(=O)Nc1ccccc1S(=O)(=O)CC1CC1(Cl)Cl (centres undefined) | 3%
O=C(NC1(C(F)(F)F)C(=O)Nc2c1c(=O)[nH]c(=O)n2-c1ccc(F)cc1)c1ccccc1 (centres undefined) | -1%
Cc1cc(C)c2c(=O)[nH]c(SCC(=O)c3ccc(C(C)C)cc3)nc2n1 | 12%
COc1ccc(OC)c(NC(=O)[C@@H]2CCCN2C(=O)c2cccs2)c1 | -9%
CCOC(=O)c1c(NC(=O)c2noc(C)c2[N+](=O)[O-])sc(C(C)=O)c1C | -13%
Cc1ccc(S(=O)(=O)CCC(=O)Nc2sccc2C#N)cc1 | -12%
CCOc1ccc(CNC(=O)C(C)n2nc(C)c3c(C)n(-c4ccccc4)nc3c2=O)cc1 (centres undefined) | 10%
COc1ccccc1N(C)S(=O)(=O)c1ccc(C(=O)OC(C)C(=O)NCc2ccc3c(c2)OCO3)cc1 (centres undefined) | -14%
C=CCN1C(=O)C(Cc2ccc(OC)cc2)SC1=Nc1ccc(C(=O)O)cc1 (centres undefined) | -18%
COc1ccc(NC(=O)c2ccco2)cc1NC(=O)c1cc(Cl)ccc1OC | -23%
O=C(NCc1ccc2c(c1)OCO2)C(=S)N1CCOCC1 | 12%
CCOC(=O)N1CCC(NC(=O)C2CCN(S(=O)(=O)c3c(C)noc3C)CC2)CC1 | 0%
COc1ccc(CN2CCC(n3nccc3NC(=O)C3CCCC3)CC2)c(OC)c1 | 3%
CCC(CC)C(=O)Nc1cccc(C(=O)N2CCOCC2)c1 | 6%
COC(=O)c1cc(=O)nc2scc(C)n12 | 7%
O=C(O)COc1ccc2c(c1)OCCO2 | -1%
CS(=O)(=O)N1CCc2cc(S(=O)(=O)Nc3ccc4c(c3)OCCO4)ccc21 | 3%
O=C(CSc1ccc2nnc(CCNC(=O)c3ccc(F)cc3)n2n1)NCC1CCCO1 (centres undefined) | -4%
O=C(C(c1ccccc1)c1ccccc1)N1CC[C@@]2(O)CCCC[C@H]2C1 | -9%
CCOC(=O)CCC(=O)Nc1ccc(S(=O)(=O)N2CCc3ccccc32)cc1 | -7%
Cc1csc(C(=O)O)c1NC(=O)c1ccc(F)cc1 | 4%
COc1ccc(CCN(C)S(=O)(=O)c2cn(C)c(=O)n(C)c2=O)cc1OC | 14%
CCCC(C)NC(=O)Cn1c(=O)c2c(ncn2CCC(C)C)n(Cc2ccccc2)c1=O (centres undefined) | -14%
CCOC(=O)c1ccc(NC2c3ncccc3C(=O)N2Cc2ccc(F)cc2)cc1 (centres undefined) | -10%
COc1ccc(C)cc1S(=O)(=O)N(C)CC(=O)N1CCCC1 | -10%
CCN(CCCNC(=O)C1CCN(S(=O)(=O)c2cnc[nH]2)CC1)c1ccccc1 | 7%
CCOc1ccc(N(C(=O)c2snc(C(N)=O)c2N)C(C(=O)NCC2CCCO2)c2ccco2)cc1 (centres undefined) | 11%
CCNS(=O)(=O)c1cc(-c2nnc(OC)c3ccccc23)ccc1C | 7%
CCOC(=O)C1CCCCN1C(=O)c1oc2c(Cl)cc(C)cc2c1C (centres undefined) | 3%
Cc1ccc(SC(CC(=O)c2ccc(C)cc2)C(=O)O)cc1 (centres undefined) | 20µM*
COC(=O)c1cc(S(=O)(=O)N2CCC(C)CC2)ccc1F | -3%

Ordered by length of the SMILES (highest first): some entries from above.
SMILES | VDR inhibitor
CCOc1ccc(N(C(=O)c2snc(C(N)=O)c2N)C(C(=O)NCC2CCCO2)c2ccco2)cc1 (centres undefined) | 11%
CCCC(C)NC(=O)Cn1c(=O)c2c(ncn2CCC(C)C)n(Cc2ccccc2)c1=O (centres undefined) | -14%
CCN(CCCNC(=O)C1CCN(S(=O)(=O)c2cnc[nH]2)CC1)c1ccccc1 | 7%
O=C(CSc1ccc2nnc(CCNC(=O)c3ccc(F)cc3)n2n1)NCC1CCCO1 (centres undefined) | -4%
O=C(C(c1ccccc1)c1ccccc1)N1CC[C@@]2(O)CCCC[C@H]2C1 | -9%
CCOC(=O)c1ccc(NC2c3ncccc3C(=O)N2Cc2ccc(F)cc2)cc1 (centres undefined) | -10%
COc1ccc(CN2CCC(n3nccc3NC(=O)C3CCCC3)CC2)c(OC)c1 | 3%
CCNS(=O)(=O)c1cc(-c2nnc(OC)c3ccccc23)ccc1C | 7%
COc1ccc(C)cc1S(=O)(=O)N(C)CC(=O)N1CCCC1 | -10%
Cc1ccc(SC(CC(=O)c2ccc(C)cc2)C(=O)O)cc1 (centres undefined) | 20µM*
CCC(CC)C(=O)Nc1cccc(C(=O)N2CCOCC2)c1 | 6%
Cc1csc(C(=O)O)c1NC(=O)c1ccc(F)cc1 | 4%
COC(=O)c1cc(=O)nc2scc(C)n12 | 7%
O=C(O)COc1ccc2c(c1)OCCO2 | -1%

High-throughput results from PubChem BioAssay.
